Source: PubChem
Mtb MbtI inh: MbtI salicylate synthase inhibitors, primary screen, biochemical, fluorescence intensity; P9WFX0; purified MbtI enzyme, fluorescence intensity read-out; AID 493033, 2011; inhibition, %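 (about 17 µg/mL by stock and volumes)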; 100,000 compounds, 0.89% hits;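 active = above 50% in both replicates, above 80% if mildly self-fluorescent; inactive = the rest, strongly fluorescent compounds included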;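 also: 0% = mean of negative and 100% = mean of positive controls; one replicate is shown; some compounds called inactive have numbers as strong as hits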
Polio RdRp inh: poliovirus RdRp elongation inhibitors, primary screen, biochemical, fluorescence polarization, total intensity; Genome polyprotein (Poliovirus type 1 (strain Mahoney)), P03300; poliovirus polymerase elongation; hits give low values; % elongation, % (compound at 16.7 µg/mL); 150,000 compounds, 0.66% hits; in the data active = % elongation below about 90%; also: some results filed as inactive read as strong as hits
Target sequence (P03300 1749-2209 limits assumed): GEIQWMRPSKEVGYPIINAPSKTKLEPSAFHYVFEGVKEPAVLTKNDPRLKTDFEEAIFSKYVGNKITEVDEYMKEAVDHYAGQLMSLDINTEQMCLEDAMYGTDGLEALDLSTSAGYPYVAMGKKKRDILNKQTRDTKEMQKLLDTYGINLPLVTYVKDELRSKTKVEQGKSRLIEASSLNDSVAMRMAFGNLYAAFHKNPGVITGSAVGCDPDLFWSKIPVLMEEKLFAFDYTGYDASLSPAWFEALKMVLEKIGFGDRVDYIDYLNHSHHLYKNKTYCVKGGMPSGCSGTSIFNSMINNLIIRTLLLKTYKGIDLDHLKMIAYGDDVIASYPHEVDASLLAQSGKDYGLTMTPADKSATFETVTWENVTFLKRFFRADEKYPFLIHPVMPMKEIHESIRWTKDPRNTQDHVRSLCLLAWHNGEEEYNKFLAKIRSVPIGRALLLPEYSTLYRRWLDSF
Mtb MenB inh: M. tuberculosis MenB inhibitors, primary screen, biochemical, absorbance | 1,4-dihydroxy-2-naphthoyl-CoA synthase (Mycobacterium tuberculosis (strain ATCC 25618 / … | MenB enzyme assay, absorbance read-out; some hits fall short of the stated cut | inhibition, %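 (about 12 µg/mL by stock and volumes)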 | 100,000 compounds, 0.43% hits | AID 540299, 2011;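 active = mean of two replicates above 30%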;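 also: 0% = no compound and 100% = wells with inactive enzyme; the first replicate is given; strong numbers were not always called active; inactives centre near -10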
Target sequence (P9WNP5 whole entry, looked up): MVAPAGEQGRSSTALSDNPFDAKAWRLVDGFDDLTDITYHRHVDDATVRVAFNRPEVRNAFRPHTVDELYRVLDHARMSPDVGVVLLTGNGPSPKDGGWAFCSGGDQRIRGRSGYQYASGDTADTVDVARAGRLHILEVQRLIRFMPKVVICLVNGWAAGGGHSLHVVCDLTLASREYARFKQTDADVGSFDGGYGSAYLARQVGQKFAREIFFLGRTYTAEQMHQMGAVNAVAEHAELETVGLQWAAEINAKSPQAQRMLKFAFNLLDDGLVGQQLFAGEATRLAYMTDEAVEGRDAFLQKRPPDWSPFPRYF
Polio RdRp inh intensity: recorded beside Polio RdRp inh, whose call it bears; % elongation; measured here: total intensity read-out; formula for this scale not given here;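 total fluorescence in place of polarization; lower means less elongation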
* marks the source's active call; other numbers are inactive results; . = no result given.

smiles	Mtb MbtI inh	Polio RdRp inh	Polio RdRp inh intensity	Mtb MenB inh
CC(C)N1CCN(S(=O)(=O)c2ccc(Cl)cc2)CC1	2	102	104	31
COc1ccc(-c2n[nH]c(C(F)(F)F)c2-c2cc3ccccc3o2)c(O)c1	90	102	105	.
Clc1ccc(-n2ncc3c(N4CCCC4)ncnc32)cc1	-16	100	102	5
CCc1ccc(Oc2coc3cc(OC(=O)c4cccs4)ccc3c2=O)cc1	-6	106	109	-8
Clc1ccccc1CNCc1ccncc1	-3	102	104	-34
CC(=O)NCc1ccc(C(=O)COC(=O)/C=C/c2cccs2)o1	17	103	103	-23
Brc1ccccc1-c1nc2ccccc2c2nc3ccccc3n12	-12	103	106	-22
Cc1ccc(NC(=O)CN(C)C(=O)Cc2c[nH]c3ccccc23)cc1	-9	104	98	-35
CCOC(=O)CC1=CSC2=NCCN12	11	104	104	-11
CCCN(CCC)C(=O)c1ccc2c(c1)N(Cc1ccccc1C)C(=O)c1ccccc1S2=O (stereo not given)	-11	100	100	7
O=C(NCc1ccncc1)c1cc2n(n1)C(C(F)(F)F)CC(c1ccco1)N2 (stereo not given)	-5	101	110	-7
O=C1CCCN1CN1CCN(CN2CCCC2=O)CC1	-5	103	98	-14
COc1ccc(OC(=O)c2cc3ccccc3o2)cc1	-10	102	106	2
O=C1CCCN2N=C(SCc3ccccc3F)SC2=N1	2	102	100	-15
CCOc1cccc(/C=N/NC(=O)c2[nH]nc(-c3ccccc3)c2C)c1O	-1	103	104	-85
N#Cc1ccccc1NC(=O)CSc1ccccn1	-1	102	100	13
Cc1ccc(-c2cc(C(F)(F)F)c3c(N)c(C(=O)c4ccc5c(c4)OCO5)sc3n2)o1	.	45	250	-9
CCN(Cc1ccncc1)S(=O)(=O)c1cc(C(C)(C)C)ccc1C	8	98	102	-17
O=C(c1ccco1)c1cn(CC(=O)N2CCc3ccccc3C2)c2ccccc12	32	104	96	-88
Cc1cc(-c2ccccc2C(=O)NCc2ccccc2)on1	-9	103	100	-20
CCc1ccccc1Nc1nc(N)nc(CSc2nnc(-c3cccs3)n2CC2CCCO2)n1 (stereo not given)	-1	105	102	6
COc1ccccc1N1CCN(C(=O)C(OC(C)=O)c2ccccc2)CC1 (stereo not given)	-3	101	107	-14
O=C(Nc1ccccc1)c1snc2c(=O)[nH]cnc12	-6	103	98	-47
Cn1c(SCC(=O)N2CCCCC2)nc2ccccc2c1=O	-12	100	100	-6
COC(=O)c1c(-c2ccc(F)c(F)c2)cn2c1SCC2=O	33	114	113	-6
O=C(CCCC(=O)c1ccccc1)Nc1ccc(O)cc1	-4	99	96	-3
COc1ccc(S(=O)(=O)N(C)c2ccnc(C(=O)N3CCc4ccccc43)c2)cc1	-7	103	102	-26
Cc1cc(=O)oc2cc(OC(C)C)c(Cl)cc12	-66	101	108	.
COc1ccc(-c2csc(N/N=C\c3ccc(O)cc3)n2)cc1	50	104	101	-40
CCC(=O)NCCc1cc2cc(C)c(C)cc2[nH]c1=O	5	98	105	-11
CC(SCC(=O)Nc1ccc(S(=O)(=O)N(C)C)cc1)C(=O)O (stereo not given)	-7	.	.	-2
Cc1cc(C(=O)COc2ccc(Cl)cc2Br)c(C)n1C	2	104	107	11
Cc1cc(=O)oc2cc(NC(=O)C3COc4ccccc4O3)ccc12 (stereo not given)	-11	104	106	4
CCCC(=O)N1c2ccccc2NC2=C(C(=O)CCC2)C1c1ccc(OC)c(OC)c1 (stereo not given)	4	101	98	-28
O=C(c1ccccc1)C1CCN(S(=O)(=O)c2cc(C(F)(F)F)cc(C(F)(F)F)c2)CC1	14	99	99	-7
O=C(CC1(O)C(=O)N(CCc2ccccc2)c2ccc(Cl)cc21)c1ccccc1 (stereo not given)	-15	103	106	.
C=CCN(CC(=O)O)S(=O)(=O)c1ccccc1C(F)(F)F	-9	102	102	-12
CS(=O)(=O)c1nc(Oc2cccc(C(F)(F)F)c2)cc(Oc2cccc(C(F)(F)F)c2)n1	.	104	108	-29
FC(F)Oc1ccc(NC(=S)NC2CCCC2)cc1	2	104	107	-20
O=C1c2ccccc2C(O)(c2ccccc2)N1C1CCCC1 (stereo not given)	-23	101	100	-44
CN1C(=S)N(C2CCCCC2)C(=O)/C1=C/c1ccc(-c2ccc(Br)cc2)o1	13	114	125	12
CC(C)CC(=O)N1CCN(c2ccc(F)cc2)CC1	-6	101	101	-24
O=C(Oc1ccc2c(c1)OCO2)[C@@H]1CCCN1S(=O)(=O)c1ccc(Cl)cc1	-2	108	109	-35
CCc1ccc(OCCCC(=O)O)c(Br)c1	-2	100	101	-21
COc1cccc(CNC(=O)CSC)c1	-5	100	107	-18
COC(=O)c1ccc(NC(=O)CNC2CCCCCC2)cc1	-4	103	106	9
CC(C)(C)C(=O)CC(=O)Nc1ccc(Cl)c(N)c1	-5	98	103	6
O=c1[nH]nc(SCc2cccc3ccccc23)c(=O)[nH]1	51*	100	105	-19

Quoted at random: three entries already listed.
smiles	Mtb MbtI inh	Polio RdRp inh	Polio RdRp inh intensity	Mtb MenB inh
Clc1ccc(-n2ncc3c(N4CCCC4)ncnc32)cc1	-16	100	102	5
O=C(CCCC(=O)c1ccccc1)Nc1ccc(O)cc1	-4	99	96	-3
CCCN(CCC)C(=O)c1ccc2c(c1)N(Cc1ccccc1C)C(=O)c1ccccc1S2=O (stereo not given)	-11	100	100	7

(list continues)
smiles	Mtb MbtI inh	Polio RdRp inh	Polio RdRp inh intensity	Mtb MenB inh
Cc1cc(N=Cc2c(O)n(-c3ccc(C)c(C)c3)c(=O)c3ccccc23)no1	-7	114	114	-3
CCN(CC)Cc1cc(C(=O)O)c(-c2ccccc2)o1	.	96	106	-12
Cc1c(N2CCCC2)cc2c(c1N)C(C)(C)CC2(C)C	-3	99	104	-22
CC(=O)NCCC(=O)Nc1ccc(OC(F)F)cc1	8	99	104	-1
CC(=Nc1ccccc1)Nc1ccccc1	-4	101	100	-1
Cc1ccc(-n2nnc(S(=O)(=O)c3ccc(C)cc3)c2N)cc1	-3	102	101	-4
CCOC(=O)C1=C(C)NC(=S)NC1c1ccc(OCC(=O)N2CCCCC2)cc1 (stereo not given)	.	104	107	-4
O=C(NCCN1C(=O)CSC1=O)c1ccccc1	-3	100	101	.
Cc1ccc(CNC(=O)c2cn(C)c3ccc(S(=O)(=O)N4CCCC4)cc3c2=O)cc1	-5	100	102	-12
CCN(CC)c1ccc(C(=O)OCC(=O)c2ccc(OC(F)F)cc2)cc1	-13	107	107	-29
O=C(Cc1cccs1)Nc1noc2ccccc12	4	106	109	-21
CCOc1ccc(NC(=O)Cc2ccccc2OC)cc1	.	108	114	3
Cc1csc(-c2nonc2N)n1	9	107	108	-6
Cc1ccccc1OCC(=O)N1CCCc2ccccc21	14	102	104	2
CCCNC(=O)COc1ccc(Br)cc1C	-8	100	101	0
CCN(CC)C(=O)CN1CCCN(Cc2cccc(C)c2)S1(=O)=O	5	100	101	-28

The closing 2 records of the section above come first, to join the parts:
smiles	Mtb MbtI inh	Polio RdRp inh	Polio RdRp inh intensity	Mtb MenB inh
CCCNC(=O)COc1ccc(Br)cc1C	-8	100	101	0
CCN(CC)C(=O)CN1CCCN(Cc2cccc(C)c2)S1(=O)=O	5	100	101	-28
COC(=O)C1CN(C(=O)c2cccs2)c2ccccc2O1 (stereo not given)	7	100	103	-1
Cc1ccc(C(=O)Nc2ccc(-c3nc4ccccc4o3)c(O)c2)cc1	-2	104	104	-37
Cc1ccc(S(=O)(=O)Nc2ccccc2/C(O)=C(\C#N)c2nc3ccccc3n2C)cc1	12	102	95	-7
C[C@H](CCC(=O)O)[C@H]1CCC2C3C(=O)CC4CC(=O)CC[C@]4(C)C3CC(=O)[C@@]21C (stereo not given in full)	-10	100	103	9
COC(CN(C)C(=O)c1cn(C)c2ccc(S(=O)(=O)N3CCOCC3)cc2c1=O)OC	-4	103	107	-14
O=C1C(c2ccccc2)Nc2c3ccccc3nc(=S)n21 (stereo not given)	20	101	103	-36
Cc1ccc(N2C(=O)SC(Nc3ccccc3)C2=O)cc1 (stereo not given)	-10	102	102	-9
CCCc1cc(=O)n2[nH]c(NC(=O)CC)nc2n1	-17	103	103	-2
O=C(CS(=O)(=O)c1cn(CC(=O)N2CCCC2)c2ccccc12)Nc1ccccc1	-1	98	107	-8
CC(C)(C)S(=O)c1cccs1 (stereo not given)	-6	100	102	-30
O=C(CSc1nnc(Cc2cccs2)n1C1CCCCC1)N1CCCc2ccccc21	5	109	101	9
CN(CCOc1ccc(Br)cc1)C(=O)c1n[nH]c2ccccc12	7	95	99	-7
CCc1ccccc1Nc1ccc(C(=O)O)cn1	6	104	102	-45
Cc1onc(-c2ccccc2)c1C(=O)n1nnc2ccccc21	-1	100	105	4
Cc1ccccc1CN1CCN(CC(=O)NCc2cccs2)C1=O	-1	.	.	16
O=S(=O)(Nc1ncccn1)c1ccc(NC(=S)NCCN2CCOCC2)cc1	4	100	104	-2
CCOc1ccc(C(=O)NCC(=O)O)cc1	3	102	91	.
CC(C)[C@H](NC(=O)C1CCCCC1)c1nc2ccccc2[nH]1	-7	102	105	6
CCC(c1nnc(SCC(=O)NCCc2ccc(Cl)cc2Cl)o1)N(C)C (stereo not given)	79*	101	107	-17
O=C(CN1C(=O)CCC1=O)Nc1nnc(-c2cccnc2)o1	9	100	103	-9
COc1cc(/C=C2/SC(=O)NC2=O)cc(Br)c1O	0	107	107	-259
Oc1cccc(Nc2nc(NCC3CCCO3)c3ccccc3n2)c1 (stereo not given)	.	97	85	-2
COc1ccc(C2Nn3c(C)nnc3SC2C(=O)Nc2ccccc2C(F)(F)F)cc1 (stereo not given)	-10	100	100	1
O=c1[nH]c(O)c(C=Nc2ccccc2)c(=O)[nH]1	-15	101	106	8
COCc1cc(C)nc2sc3c(c12)NC1(CCCCC1)NC3=O	-8	100	104	-10
COC(=O)c1cnn(-c2ccccc2)c1C(OC)OC	-8	106	107	-23
CCN(CC)S(=O)(=O)c1ccc(C(=O)Nc2nnc(-c3ccc(S(C)(=O)=O)cc3)o2)cc1	19	100	110	-17
CCOC(=O)c1c(NC(=O)c2ccc(Cl)s2)sc2c1CCN(C(C)=O)C2	-2	100	102	-21
Nn1c(=S)[nH]c2cc(C(=O)O)ccc2c1=O	-11	103	104	-8
CC(C)n1c(SCC(=O)c2ccccc2)nc2cc(Cl)ccc21	5	107	102	-24
Cc1nn(C)c(C)c1/C=C/C(=O)N1CCN(Cc2cccc(Cl)c2)CC1	8	101	106	-3
CCc1nn(CCCC(=O)N2CCN(c3cccc(C)c3C)CC2)c(=O)c2cc3occc3n12	-7	102	100	-24
COC(=O)c1ccccc1Oc1c(F)c(F)nc(N2CCCCC2)c1F	14	101	103	4
Cc1cccc(Nc2cc(N3CCCCC3)ncn2)c1	3	101	104	-14
Cc1ccc2oc(-c3ccccc3)cc(=NCCN(C)C)c2c1	92	96	89	-13
O=c1[nH]c2ncccc2nc1-c1ccccc1	-14	104	107	6
CC(=O)N1CCN(c2ccc(N)cc2)CC1	.	103	93	30*
Cc1ccc(S(=O)(=O)c2nc(S(C)(=O)=O)sc2N2CCCC2)cc1	-8	104	107	-18
Cc1cc(C)c(C(=O)CSc2nnc(C)n2N)cc1C	-3	111	114	-21
CCCCNc1nc2ccccc2n1Cc1cccc(OC)c1	3	102	105	-31
COc1ccc(-c2nn(-c3ccccc3)cc2/C=C\C(=O)N2CCCCC2)cc1	68	99	99	.
O=C1/C(=C\c2cccs2)N=C(c2ccccc2)N1Cc1ccc(Cl)cc1	-9	108	114	-7
C=CC(C)C(C(=O)c1ccccc1)N(C)C (stereo not given)	5	104	102	-10
CCc1cc2c(NCC3CCCO3)ncnc2s1 (stereo not given)	7	102	102	-43
O=C1CC(c2ccsc2)c2c(-c3ccccc3)nn(-c3ccccc3)c2N1 (stereo not given)	-7	100	100	9
CCOC(=O)/C(C)=N/Nc1ccc(OC(F)(F)F)cc1	6	104	97	-11
Cc1no[n+]([O-])c1COc1cccc(/C=C2\SC(=S)NC2=O)c1	19	107	112	-53
CN(Cc1nc(-c2ccccc2)no1)C(=O)CC1CCCCC1	-8	100	102	-13
N#Cc1ccc(OCC(=O)N=Nc2[nH]c(N)c3ccccc23)cc1	21	99	84	-37
O=C(c1ccccc1)N1CCc2c([nH]c3ccccc23)C1c1ccccc1 (stereo not given)	.	100	97	-26
CCOC(=O)c1c(CS(=O)c2ccc(Cl)cc2)oc2c(F)c(F)c(F)c(F)c12 (stereo not given)	11	100	110	10
O=C1OC(c2ccco2)=N/C1=C\c1ccco1	24	103	99	14
CC(C)C(=O)CC(c1ccccc1)C1C(=O)NC(=O)NC1=O (stereo not given)	-15	101	100	-19
